Mtb growth: M. tuberculosis H37Rv growth inhibitors, H37Rv strain (AID 1626); actives 0.95% (n = 220,000); M. tuberculosis H37Rv growth inhibition; higher % means a stronger effect; inhibition, % at 10 µM; hits with a dose series show IC50 in µM;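 active = confirmed in a dose series; inconclusive = inhibition above 80% but not taken into the dose series; inactive = below 80% or under 30% at every dose of the series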;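 note: bacteria incubated seven days before Alamar blue readout; 0% = bacteria only wells and 100% = bacteria with antibiotic wells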
YopH PTP inh: YopH (Yersinia) phosphatase inhibition; fluorescence Ex485/Em525; inhibition, %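 (about 10 µM by stock and volumes)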; actives 0.16% (n = 140,000); AID 898;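 active = inhibition of 50% or more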;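 note: controls were vehicle for no effect and minimum signal wells for full effect; inactives centre near -20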
Arbovirus inh: antivirals against arbovirus infection; arbovirus infection cell-based antiviral screen; inhibition, % at 10 µM; actives 0.37% (n = 200,000); AID 1251;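 active = inhibition from about 30%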;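 note: bluetongue infection of BSR cells; cell survival read as ATP light after 72 h; 0% = infected wells without compound and 100% = uninfected wells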
Mtb bLac sens: beta-lactam sensitization of Mtb H37Rv. actives 0.27% (n = 330,000). AID 434955. inhibition, % at 25 µM. M. tuberculosis H37Rv growth with meropenem, percent inhibition; hits of this screen are not shown here;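 active = about 74% or more and at least 40 points above the plate without the antibiotic, then above 30% in a dose series; inconclusive = first-round hits that could not be retested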;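 note: growth measured after seven days incubation then overnight dye step; 0% = bacteria only wells and 100% = bacteria with antibiotic; twin plates without the antibiotic show which effects depend on it; some results filed as inactive read as strong as hits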
RecA intein inh: Mtb RecA intein splicing inhibition; P9WHJ3; inhibition, %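 (about 9 µM by stock and volumes)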; actives 0.75% (n = 290,000); cell-free RecA intein splicing, fluorescence; in the data active = inhibition above about 30%; inconclusive = no clear call, values can overlap the other calls;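 note: 0% = vehicle wells and 100% = reference inhibitor control wells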
Target sequence (P9WHJ3 whole entry, looked up): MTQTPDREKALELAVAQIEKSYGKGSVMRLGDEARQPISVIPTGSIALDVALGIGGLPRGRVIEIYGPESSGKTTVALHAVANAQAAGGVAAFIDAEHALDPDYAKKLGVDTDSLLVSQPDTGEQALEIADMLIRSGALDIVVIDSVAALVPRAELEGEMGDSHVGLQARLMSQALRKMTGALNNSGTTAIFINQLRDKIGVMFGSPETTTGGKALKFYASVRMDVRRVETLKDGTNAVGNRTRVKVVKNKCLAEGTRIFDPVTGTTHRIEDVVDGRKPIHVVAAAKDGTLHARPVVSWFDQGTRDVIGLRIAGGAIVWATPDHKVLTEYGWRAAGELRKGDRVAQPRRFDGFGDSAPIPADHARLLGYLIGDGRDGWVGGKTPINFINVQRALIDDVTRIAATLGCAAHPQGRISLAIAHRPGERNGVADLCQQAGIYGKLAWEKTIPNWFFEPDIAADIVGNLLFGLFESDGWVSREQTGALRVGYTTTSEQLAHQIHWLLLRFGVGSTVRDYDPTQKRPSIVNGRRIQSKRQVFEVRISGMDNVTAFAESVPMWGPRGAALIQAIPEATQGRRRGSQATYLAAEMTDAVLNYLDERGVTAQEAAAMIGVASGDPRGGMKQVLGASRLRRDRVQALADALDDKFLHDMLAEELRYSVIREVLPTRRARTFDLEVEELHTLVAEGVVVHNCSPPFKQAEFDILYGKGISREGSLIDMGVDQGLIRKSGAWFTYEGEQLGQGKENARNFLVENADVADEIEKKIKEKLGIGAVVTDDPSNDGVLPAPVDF
Arbovirus inh repeat: also measured in Arbovirus inh; calls as there; inhibition, %; measured here: 10K subset replicate screen; many hits read low in the repeat;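 first of two repeat runs on a subset; 0% = infected and 100% = uninfected wells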
Starred values were filed as active, the others as inactive; ? = inconclusive; . = no result given. Not all compounds are listed; rates above refer to the full screens.

SMILES	Mtb growth	YopH PTP inh	Arbovirus inh	Mtb bLac sens	RecA intein inh	others
C=Cn1ccnc1P(=S)(c1cc(N(CC)CC)ns1)c1nccn1C=C	-6%	-44	6	5	1.5	Arbovirus inh repeat=4
COc1ccc(Cl)cc1N(C(=O)c1ccco1)C(C(=O)NC1CCCC1)c1cccnc1 (stereo not drawn)	.	.	.	-1	-0.9
CC(=N/O)/C(=N\O)c1ccc(C)o1	6%	-43	1	-2	.
O=c1[nH]c2ccc(NCc3ccc(F)cc3)cc2[nH]1	.	.	.	7	-3.4
CC(C)c1ccc(CNc2ncc(Br)cn2)cc1	.	.	.	?	1.1
CN(C)/C=C/C(=O)c1ccc(Br)cc1	2%	.	-1	-4	-4.6
CCCn1c(C2CC(=O)N(c3ccc(C)cc3)C2)nc2ccccc21 (stereo not drawn)	1%	-1	12	11	2.0
Cn1cnc(S(=O)(=O)Nc2ccccc2N2CCOCC2)c1	-1%	.	.	-5	1.0
CCCC(C)C(=O)Nc1ccccc1C(=O)OCC (stereo not drawn)	2%	-10	-2	-4	-7.8
Cc1cc(C)n(CC(O)COc2ccc(F)cc2)n1 (stereo not drawn)	.	.	.	4	0.5
CCOCCCNC(=S)N(CCCN(C)C)Cc1cc2cc3c(cc2[nH]c1=O)OCCO3	.	.	.	-12	-2.1
CC(CCc1ccccc1)NC(=O)/C=C/c1ccccc1 (stereo not drawn)	3%	2	13	0	2.0
CCn1cc(S(=O)(=O)Nc2nc3ccc(OC)cc3s2)cn1	.	.	.	-5	-0.3
Nc1ncnc2c1ncn2CCc1ccccc1	.	.	.	5	2.3
CCN(CC)CCOC(=O)c1ccc(NC(=O)C(C)NC(=O)C23CC4CC(CC(C4)C2)C3)cc1 (stereo not drawn)	0%	-20	7	9	-1.0

Next section; the last three above are carried over.
SMILES	Mtb growth	YopH PTP inh	Arbovirus inh	Mtb bLac sens	RecA intein inh	others
CCn1cc(S(=O)(=O)Nc2nc3ccc(OC)cc3s2)cn1	.	.	.	-5	-0.3
Nc1ncnc2c1ncn2CCc1ccccc1	.	.	.	5	2.3
CCN(CC)CCOC(=O)c1ccc(NC(=O)C(C)NC(=O)C23CC4CC(CC(C4)C2)C3)cc1 (stereo not drawn)	0%	-20	7	9	-1.0
CN(/N=C/c1ccncc1)C1=NS(=O)(=O)c2ccccc21	-11%	-41	6	20	1.5
Cc1nc(C)c2c(=O)cc(-c3ccccc3)[nH]c2n1	-3%	-38	-24	-6	2.3
O=C(CSc1nnc(CNC(=O)c2c(F)cccc2Cl)o1)Nc1ccc2c(c1)OCCO2	-8%	-20	1	-7	2.0
CCOC(=O)c1cc2c(nc1N)CC(C)(C)OC2	0%	-9	-1	-5	-1.1
COc1cccc(-c2csc(NC(=O)Oc3ccccc3)n2)c1	0%	-23	9	-8	2.1
Cc1cc(C)nc(SCC(=O)N/N=C/c2cccs2)n1	-3%	-23	-15	-3	2.2
Nc1cc(N)nc(SCC(=O)NCc2ccco2)n1	2%	.	27	-4	-1.1
COc1ccc(S(=O)(=O)NC(C)C)cc1C(=O)NC1CCCCC1	0%	-31	3	-5	-0.7
COc1ccc(NC2CC(=O)N(C)C2=O)cc1 (stereo not drawn)	37%	-30	-8	?	1.5
CC(C)(C)c1ccc(C(CC(=O)O)NC(=O)Cc2ccc(Cl)cc2)cc1 (stereo not drawn)	.	.	.	-3	2.6
CCOc1ccc(CNC(=O)CCn2c(=O)oc3ccccc32)cc1	-4%	-33	5	-4	-2.8
CCOc1c2ccc(C(=O)NCc3ccc(C)cc3)cc2nn1CCOC	-4%	-35	1	-4	-2.0
Fc1ccc(OCCOCCNCC2CCCO2)cc1 (stereo not drawn)	2%	-27	-2	16	0.6
CCC(=O)Nc1ccc2c(c1)nc(CCN1CCN(c3ccccn3)CC1)n2C	.	.	.	3	-2.6
Cn1c(-c2cccc([N+](=O)[O-])c2)cnc1NCc1cccc(F)c1	.	.	.	-1	-0.6
Cc1cc(Nc2ccc(N(C)C)cc2)n2ncnc2n1	.	.	.	-5	-3.1
CCCOc1ccc(-c2c(C(=O)N/N=C/C3CC=CCC3)nnn2-c2nonc2N)cc1 (stereo not drawn)	.	.	.	-4	-3.9
Cc1c(C(=O)NCc2ccccn2)oc2ccc(S(=O)(=O)N3CCOCC3)cc12	.	-22	4	-3	-2.6	Arbovirus inh repeat=-3
O=C(CNC(=O)c1ccc(Br)cc1)OCc1cc([N+](=O)[O-])cc2c1OCOC2	-1%	.	6	-13	-5.0
CN(c1ccc(C(=O)NCCSCc2ccc(Cl)cc2)cc1)S(=O)(=O)c1ccccc1	74%	-19	17	98	6.7
COc1ccc(/C=N/NC(=O)CCn2nc(C)cc2C)cc1	7%	.	.	-6	0.9
O=[N+]([O-])c1cc(S(=O)(=O)Nc2ccccc2)ccc1-n1nnc2ccccc21	1%	-126	1	-3	-2.0
Fc1ccc(C(CCCn2nnc(-c3cccnc3)n2)c2ccc(F)cc2)cc1	-2%	-12	-20	2	16
COc1ccc(/C=N/n2c(-c3ccc(C)cc3)n[nH]c2=S)cc1OC	10%	.	.	3	-0.8
CN(C)S(=O)(=O)c1ccc(C(=O)NCCS(=O)(=O)N2CCN(c3ccc(F)cc3)CC2)cc1	.	.	.	-1	0.2
COc1ccc(CNC(=O)C(C)N(Cc2ccco2)C(=O)c2snc(C(N)=O)c2N)cc1 (stereo not drawn)	-5%	-40	3	2	-1.0
CCOC(=O)N1CCN(C(=O)c2cc(COc3cccc(C(F)(F)F)c3)on2)CC1	.	.	.	64	-0.3
O=C(CSc1nccc(=O)[nH]1)Nc1cccc(S(=O)(=O)N2CCOCC2)c1	-8%	.	8	-2	3.3
CC(C)(C)NC(=O)C1Cc2ccccc2CN1 (stereo not drawn)	0%	.	-3	-1	1.3
COC(=O)CN1C(=O)[C@@H]2[C@H](C1=O)[C@@H]1CC(C(=O)OC)=C[C@@H](C(=O)OC)[C@@H]3C1=C(C(=O)[C@@]3(C)NC(=O)c1ccccc1)[C@@H]2C	-7%	.	.	-10	-2.8
c1ccc(-c2nnc3sc(Cc4cccs4)nn23)cc1	16%	-20	-7	36	2.8
COc1ccc(N2CCN(C(=O)CNS(=O)(=O)c3ccc(Br)s3)CC2)cc1	.	.	.	3	7.2
Cc1nnc(N2C(=O)C(=O)/C(=C(\O)c3ccc4c(c3)CC(C)O4)C2c2ccccc2)s1 (stereo not drawn)	.	.	.	1	-1.0
O=C(Cc1ccc(Cl)cc1)Nc1ccc(CN2CCCCC2)cc1	2%	.	.	-8	1.6
COC(=O)C1=C(c2cccc(OC)c2OC)C[C@@H]2CC[C@H]1N2C(=O)NCc1ccco1	-1%	.	.	-3	1.0
CCCCn1c(N)c(N(CCC(C)C)C(=O)C2CC(=O)N(Cc3ccc(C)cc3)C2)c(=O)[nH]c1=O (stereo not drawn)	.	.	.	-8	9.4
O=[N+]([O-])c1cccc(-c2nn(-c3ccccc3)cc2CO)c1	.	.	.	7	1.2
COc1cccc(C(=O)Nc2cc(=O)n(C)c(=O)n2C)c1	7%	.	2	-6	4.3	Arbovirus inh repeat=1
Cc1cc(C)nc(-n2nc(C)cc2NC(=O)CNC(C)c2ccccc2)n1 (stereo not drawn)	2%	-40	4	0	-3.0
Cc1ccccc1OCCC(=O)N(Cc1ccccc1)c1c(N)n(Cc2ccccc2)c(=O)[nH]c1=O	.	.	.	-8	8.8
CN(Cc1c(C(=O)N/N=C/c2ccccc2F)nnn1-c1nonc1N)c1ccccc1	.	.	.	0	5.6
COc1ccc(NC(=O)CSc2nnc(NC(C)=O)s2)c([N+](=O)[O-])c1	3%	.	0	4	12
CCC(CC)c1nnc(NC(=O)c2cccnc2SC)s1	4%	.	-1	-2	2.8
COc1ccc(NC(=O)c2cc(S(=O)(=O)N3CCCCC3)c[nH]2)cc1Cl	.	.	.	2	-1.0
CC(C)Cn1[nH]c2c3c(ccc2c1=O)C(=O)c1ccccc1C3=O	5%	0	-31	92	-0.7

The list goes on; it opens with the two that closed the last part.
SMILES	Mtb growth	YopH PTP inh	Arbovirus inh	Mtb bLac sens	RecA intein inh	others
COc1ccc(NC(=O)c2cc(S(=O)(=O)N3CCCCC3)c[nH]2)cc1Cl	.	.	.	2	-1.0
CC(C)Cn1[nH]c2c3c(ccc2c1=O)C(=O)c1ccccc1C3=O	5%	0	-31	92	-0.7
COc1ccc(OC)c(C(=O)CN2CCN(S(=O)(=O)c3ccc(Br)cc3)CC2)c1	-3%	-9	7	-9	0.1
CCOc1ccc(C(=O)Nc2ccc(N3CCN(C(C)=O)CC3)cc2)cc1[N+](=O)[O-]	12%	.	2	3	1.3
Cc1noc(C)c1C(=O)OCC(=O)Nc1cccc(S(=O)(=O)N(C)C)c1	3%	-25	2	0	1.8
O=C(Cn1cnc2cc([N+](=O)[O-])ccc2c1=O)Nc1ccccc1Cl	-1%	.	.	-7	-1.9
Cn1c2ccc(F)cc2c2ncn(CCN3CCOCC3)c(=O)c21	-2%	7	11	-2	-2.8
Cc1c(OC(C)C(=O)NCCCn2ccnc2)ccc2c3c(c(=O)oc12)CCC3 (stereo not drawn)	.	.	.	3	-1.5
COCCNC(=O)CN(C(=O)CCC(=O)Nc1ccccn1)c1ccc(C)cc1	.	.	.	-6	-1.9
CCN1CCN(C(c2cccs2)C(C)NS(=O)(=O)c2ccc(C)cc2)CC1 (stereo not drawn)	4%	.	-3	-2	-2.2
CCCn1ncc(CN2CCC(CO)(Cc3ccc(OC)cc3)CC2)c1C	1%	.	-10	-4	1.0
Cc1oncc1C(=O)NC1CCCCC1	-7%	.	5	8	-0.7
O=C(CC1SC(=O)N(Cc2cccc3ccccc23)C1=O)Nc1nccs1 (stereo not drawn)	-5%	-33	5	2	1.3
C[C@]12CCC(=O)C=C1CC[C@@H]1[C@@H]2[C@@H](O)C[C@]2(C=O)[C@@H](C(=O)CO)CC[C@@H]12	.	.	.	3	4.2
Cc1ccc(S(=O)(=O)Nc2ccc(Br)cc2C(NCC(=O)O)c2ccccc2)cc1 (stereo not drawn)	6%	-31	-9	-9	9.7
CC(=O)N1CCN(CC(O)Cn2c3ccccc3c3ccccc32)CC1 (stereo not drawn)	.	.	.	3	0.9
O=C(Nc1ccccc1)C1C2CCC3C(CCC21)C3(Cl)Cl (stereo not drawn)	-4%	-7	-2	2	1.0

The last 2 entries of the part before lead into the next.
SMILES	Mtb growth	YopH PTP inh	Arbovirus inh	Mtb bLac sens	RecA intein inh	others
CC(=O)N1CCN(CC(O)Cn2c3ccccc3c3ccccc32)CC1 (stereo not drawn)	.	.	.	3	0.9
O=C(Nc1ccccc1)C1C2CCC3C(CCC21)C3(Cl)Cl (stereo not drawn)	-4%	-7	-2	2	1.0
Fc1ccccc1COc1ccc(Br)cc1CNCC1CCCO1 (stereo not drawn)	8%	.	4	3	2.8
O=S(=O)(c1ccc(F)cc1)N1CCN(C(=S)NCc2ccco2)CC1	3%	-24	11	-2	-4.5
COc1ccc(/C=N/NC(=O)c2cc[n+]([O-])cc2)cc1	.	.	.	-11	-2.0
CCOc1cccc(CN2CCCC(C(=O)Nc3ccc(-c4ccn[nH]4)cc3)C2)c1O (stereo not drawn)	.	.	.	2	0.7
O=C(O)CSCC(=O)N1CCN(S(=O)(=O)c2ccccc2)CC1	-4%	.	12	-2	-1.1
COc1cc(CNCCc2ccc(F)cc2)ccc1OCc1ccc(Cl)nc1	8%	-13	-42	-9	-0.8
CC/C(=N\Nc1ccc([N+](=O)[O-])cc1[N+](=O)[O-])c1ccc(O)cc1	.	.	.	8	3.4
Cc1ccc(-c2nnn(CC(=O)N(Cc3cccs3)C(C(=O)NC(C)(C)C)c3ccco3)n2)o1 (stereo not drawn)	-6%	-38	4	-4	1.8
CN1/C(=C\C(=O)COC(=O)C2COc3ccccc3O2)C(C)(C)c2ccccc21 (stereo not drawn)	.	-1	11	4	-0.8
O=C(c1ccccc1CCc1ccccc1)N1CCOCC1	-9%	41	4	-10	0.0
N#C/C(=C\c1c(N2CCCCC2)nc2ccccn2c1=O)S(=O)(=O)c1ccccc1	-5%	.	.	-8	-2.4
Cc1ccc(C(=O)CNc2ccc(Br)cc2)cc1	-1%	-25	-9	5	-0.3
Cc1ccc(NC(=O)CSc2nc(-c3ccco3)nc3cc(=O)[nH]n23)c(Cl)c1	.	.	.	4	1.5
Cc1cccc(NC(=O)CCNS(=O)(=O)c2cccc3nsnc23)c1	-4%	-37	-1	6	0.6	Arbovirus inh repeat=0
O=C(C[n+]1cccc2ccccc21)c1ccc(Cl)cc1	.	.	.	2	0.6
CN(CCCCC(=O)/C=N/O)Cc1ccccc1 (tested in a mixture with another compound)	-8%	-26	0	5	0.3
COc1ccc(/C=C/C(=O)c2cc(Br)ccc(=O)c2O)cc1	?	-14	-30	32	.
COc1ccccc1NC(=O)Cc1nnc(SCC(=O)c2ccccc2)n1C	.	.	.	0	-0.1
COc1cc(OC)c(C(=O)NCCCN2CCOCC2)cc1OC	-10%	.	3	-6	-1.7
